ClpP mod: qHTS Assay for Activators of ClpP. ATP-dependent Clp protease proteolytic subunit (Bacillus subtilis (strain 168)), P80244. purified B. subtilis ClpP, FRET peptide cleavage, 20 min. Potency, µM (top dose mostly 57.5 µM), for inactives: at the highest dose activity change, negative = active. 340,000 tested, 1.9% active; active = well fitted falling curve with a large enough effect; inconclusive = small, poorly fitted or top-dose-only effect; inactive = no such curve, though single readings can be large or run the other way; further: potency means the concentration at half of the fitted maximal effect; the source files actives as falling curves though it sought activators and does not explain the sign; nearly all actives have a fitted effect of over 65% in size; many hits overshoot -100%
Target sequence (P80244 whole entry, looked up): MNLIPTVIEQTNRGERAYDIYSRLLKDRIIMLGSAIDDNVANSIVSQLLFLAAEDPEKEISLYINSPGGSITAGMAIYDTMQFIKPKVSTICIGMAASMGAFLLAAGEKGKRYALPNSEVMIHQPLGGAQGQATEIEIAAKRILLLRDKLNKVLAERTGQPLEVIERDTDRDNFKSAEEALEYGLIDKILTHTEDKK
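Purified B. subtilis ClpP, 10 microg/mL final in Tris/HCl pH8 with KCl, BSA, glycerol and Tween-20, cleaved an Abz/nitrotyrosine-quenched decapeptide. Fluorescence (ex 320, em 430) was read at 0 and 20 min at room temperature. Delta was normalized to 5.8 microM ADEP and DMSO/no-enzyme controls.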
gsp antagonist: qHTS for Antagonists of gsp, the Etiologic Mutation Responsible for Fibrous Dysplasia/McCune-Albright Syndrome: qHTS; Potency, µM (titrated, usually from 76.9 µM), without a hit: at the highest dose activity change, negative = inhibition, hits mostly inhibitors; gsp-mutant cells, cAMP HTRF, 30 min; control for the full effect not named in the record; 340,000 tested, 0.4% active; AID 624288, 2012; active = falling curve of any shape with a large fitted effect; inconclusive = falling curve, mostly with a smaller effect; inactive = flat or rising curve; cell line not stated here;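 further: intracellular cAMP measured with PDE inhibitor Ro 20-1724 present during compound exposure; potency means the concentration at half of the fitted maximal effect; on the % scale 0 is the no-effect control and ±100 the full control effect; nearly all actives have a fitted effect of over 65% in size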
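HTRF cAMP read-out (cAMP-d2 plus anti-cAMP antibody-K in lysis buffer, 30 min RT). Before lysis, cells are exposed to compounds with […] for 30 min at 37C in DPBS containing Ca/Mg, BSA and Tween 20.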
gsp ag: qHTS for Agonist of gsp, the Etiologic Mutation Responsible for Fibrous Dysplasia/McCune-Albright Syndrome: qHTS. gsp mutant cells, cAMP HTRF, 30 min; control for the full effect not named in the record. Potency, µM (top dose mostly 76.9 µM), inactives show top-dose activation (cAMP increase), usual class: activators. 340,000 tested, 0.13% active. AID 624287, 2012; active = well fitted activation curve with a large enough effect; inconclusive = small, poorly fitted or top-dose-only effect, or another doubt; inactive = no such curve, though single readings can be large or run the other way; cell line not stated here;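 further: phosphodiesterase inhibitor Ro 20-1724 added with compounds to block cAMP breakdown; potency means the concentration at half of the fitted maximal effect; nearly all actives have a fitted effect of over 60% in size; about a fifth of the inactives were tested at one dose only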
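Cells stably selected in G418 were plated at 2000/well, grown 16-24 hr, then given compounds in DMSO with the PDE inhibitor […] (300 uM solution added) for 30 min at 37C; cAMP was read by HTRF.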
D2 agonist: Beta-Arrestin HTS for Positive Allosteric Modulators of the Human D2 Dopamine Receptor: Agonists; DiscoveRx PathHunter D2 beta-arrestin, luminescence, 90 min; 100% = 57 uM dopamine signal; activation, % (concentration not given with the values); D(2) dopamine receptor (Homo sapiens), P14416; 360,000 tested, 0.084% active; AID 624465, 2012; in the data active = activation above about 40%; inconclusive = about 15% to 40%; inactive = below about 15%; further: compound concentration not given in the record; the text of the record calls up to 30% inactive
Target sequence (P14416 whole entry, looked up): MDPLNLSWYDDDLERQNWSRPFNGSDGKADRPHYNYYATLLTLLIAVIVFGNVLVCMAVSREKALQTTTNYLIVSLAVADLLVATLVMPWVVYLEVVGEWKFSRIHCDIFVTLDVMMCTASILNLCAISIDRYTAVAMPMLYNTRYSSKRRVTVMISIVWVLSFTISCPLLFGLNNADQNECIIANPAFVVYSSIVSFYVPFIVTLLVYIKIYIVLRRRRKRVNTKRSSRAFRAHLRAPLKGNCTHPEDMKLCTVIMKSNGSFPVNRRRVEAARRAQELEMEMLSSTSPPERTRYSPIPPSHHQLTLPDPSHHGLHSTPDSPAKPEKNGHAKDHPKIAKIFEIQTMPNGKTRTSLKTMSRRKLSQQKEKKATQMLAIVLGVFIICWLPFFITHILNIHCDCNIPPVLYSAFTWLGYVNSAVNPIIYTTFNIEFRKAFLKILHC
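Agonist mode: compounds alone added to overnight-plated D2 PathHunter cells for 90 min at 37 C, with 57 uM final dopamine (EC100) defining full response. Beta-arrestin recruitment detected by chemiluminescent reagent, read after 1 h at ambient temperature.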
Menin MLL FP FL: qHTS Assay for Inhibitors Targeting the Menin-MLL Interaction in MLL Related Leukemias: Competition With Fluorescein Labeled MLL-derived Peptide; Fluorescence polarization, fluorescein-MLL peptide displacement from menin; FP activity change, % at 61.4 µM; 290,000 tested, under 10 active; AID 1766, 2009; inconclusive = falling polarisation curve, or a change in total fluorescence; inactive = total fluorescence flat and polarisation flat or rising; no compound was filed as active; the % refers to the polarisation; negative = inhibition;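 further: % of control where 0% means no effect; inhibitors lower the polarisation; unlabelled MLL peptide was the positive control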
Sfp inh: qHTS Assay for Inhibitors of Bacillus subtilis Sfp phosphopantetheinyl transferase (PPTase); 4'-phosphopantetheinyl transferase ffp (Bacillus subtilis), Q9F4F7; Biochemical Sfp PPTase activity, qHTS; Potency, µM, inactives show max response, negative = inhibition, hits mostly inhibitors; 310,000 tested, 3.5% active; AID 1490, 2009; active means well fitted inhibition curve with a large enough effect; inconclusive means small, poorly fitted or top-dose-only effect, or another doubt; inactive means no such curve, though single readings can be large or run the other way;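 further: the enzyme is Sfp with the accession as filed and its product quenches rhodamine fluorescence; potency means the concentration at half of the fitted maximal effect; 0% = enzyme reaction without inhibitor and -100% = no enzyme wells; top concentration of the series not given in the record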
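Reaction rates are the 30-min fluorescence difference (ex 525, em 598 nm) in wells containing 15 nM Sfp, 5 uM rhodamine-CoA and 12.5 uM BHQ-2-YbbR at pH 7.6 with 10 mM MgCl2.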
PINK1 modulator: A Quantitative High throughput Screen to Identify Chemical Modulators of PINK1 Expression. PINK1 immunofluorescence, high-content cytometry, 24 h. Potency, µM (series often up to 76.6 µM), for inactives: at the top dose activation (PINK1 increase), hits mostly activators. 410,000 tested, 0.2% active. AID 624263, 2012; active = well fitted activation curve with a large enough effect; inconclusive = small, poorly fitted or top-dose-only effect; inactive = flat fitted curve, though single readings scatter; cell line not stated here;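 further: potency means the concentration at half of the fitted maximal effect; % of control where 0% means no effect; nearly all actives have a fitted effect of over 65% in size; a mitochondrial uncoupler was the plate control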
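A stable cell line was treated with compounds at 5 concentrations for 24 hours, with CCCP as control. PINK1 levels and mitochondrial localization were measured by immunofluorescence with mitochondrial, cell and nuclear markers after fixation, read by laser-scanning cytometry.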
* marks the source's active call; other numbers are inactive results; & = joins results of further samples; [ ] = dose if it differs, or a comment.

How did C=CCn1c(SCC(=O)N(CC)C2CCS(=O)(=O)C2)nc2cc(C(=O)O)ccc2c1=O (stereo unspecified) do in these assays?
ClpP mod: inconclusive; gsp antagonist: 3%; gsp ag: -8%; D2 agonist: -1.8; PINK1 modulator: 1.8%

Results for Cc1cccc(C=Nc2ccc3c(c2)oc2ccccc23)c1O ?
ClpP mod: 32µM*; gsp antagonist: -16%; gsp ag: -11%; D2 agonist: -6.8; Menin MLL FP FL: 7.7; Sfp inh: inconclusive; PINK1 modulator: 7.0%

Results for COc1cc(C=C2C(=O)OC(c3ccccc3)OC2=O)cc(Br)c1O (stereo unspecified) ?
gsp antagonist: 2%; gsp ag: inconclusive; D2 agonist: 3.4; Menin MLL FP FL: 0.8; Sfp inh: 2%; PINK1 modulator: -0.5%

Results for CCOc1ccccc1NC(=S)N(CCC(C)C)C1CCN(C(C)=O)CC1 ?
gsp antagonist: -16%; gsp ag: inconclusive; D2 agonist: 4.9; Menin MLL FP FL: 1.0; Sfp inh: 3%; PINK1 modulator: 2.6%

Results for O=S(=O)(Nc1ccc(Cl)cn1)c1cccc(S(=O)(=O)c2ccccc2)c1 ?
ClpP mod: -2.2%; gsp antagonist: -1%; gsp ag: -78%[inhibitor]; D2 agonist: -2.6; Menin MLL FP FL: -2.1; Sfp inh: 1%; PINK1 modulator: 0.6%

What do the screens show for `CCN(CC)C(=O)Nc1ccc(C(=O)OC)cc1`?
ClpP mod: 0.1%; gsp antagonist: -5%; gsp ag: -5%; D2 agonist: -4.2; Menin MLL FP FL: 3.3; Sfp inh: 12%; PINK1 modulator: -0.7%

How did CC(C)COC(=O)C(C#N)c1nc2ccccc2nc1N1CCN(Cc2ccccc2)CC1 (stereo unspecified) do in these assays?
ClpP mod: -5.0%; gsp antagonist: 9%; gsp ag: 0%; D2 agonist: -3.1; Menin MLL FP FL: inconclusive; Sfp inh: -8%; PINK1 modulator: 2.6%

Results for Cc1cccc(Nc2nc(-c3sc(C)nc3C)cs2)c1 ?
ClpP mod: -0.6%; gsp antagonist: inconclusive; gsp ag: 2%[15.4 µM]; D2 agonist: 2.3; Menin MLL FP FL: -2.4; Sfp inh: -20%; PINK1 modulator: 13%

How did O=C(NC1CCCCC1)C(c1ccco1)N(C(=O)c1csnn1)C1CCCC1 (stereo unspecified) do in these assays?
ClpP mod: -7.1%; gsp antagonist: -1%; gsp ag: -19%; D2 agonist: -2.5; Menin MLL FP FL: 2.6; Sfp inh: -8%; PINK1 modulator: 0.9%

Results for CC(=O)c1cnc2c(C(=O)O)cnn2c1C ?
ClpP mod: -1.3%; gsp antagonist: 8%; gsp ag: -6%; D2 agonist: -0.8; Menin MLL FP FL: -6.6; Sfp inh: inconclusive

What do the screens show for `COc1ccc(-n2c(SCC(N)=O)nnc2-c2ccco2)cc1`?
ClpP mod: -1.4%; gsp antagonist: -5%; gsp ag: inconclusive; D2 agonist: -1.8; Menin MLL FP FL: 2.5; Sfp inh: 16%; PINK1 modulator: 0.5%

What do the screens show for `C[C@H]1COC(=O)[C@@H](CC(=O)OC(C)(C)C)C/C=C\C[C@@H](CC(=O)N(CCO)Cc2ccccc2)C(=O)N1`?
ClpP mod: -2.4%; gsp antagonist: 4%; D2 agonist: -2.5; PINK1 modulator: -0.8%

Results for Cc1ccc(S(=O)(=O)N(C)C)cc1NC(=O)CSc1nnnn1-c1ccc(O)cc1 ?
gsp antagonist: -3%; gsp ag: 2%[15.4 µM]; D2 agonist: -2.6; Menin MLL FP FL: 1.8; Sfp inh: -6%; PINK1 modulator: -0.8%

Results for CCOC(=O)c1ccc(NC(=O)NCCc2cnc[nH]2)cc1 ?
gsp antagonist: 14%; gsp ag: -29%; D2 agonist: -2.4; Menin MLL FP FL: -1.0; Sfp inh: 0%; PINK1 modulator: 2.3%

What do the screens show for `C=CCOc1cccc(C2/C(=C(\O)c3ccc4c(c3)OCCO4)C(=O)C(=O)N2Cc2cccnc2)c1` (stereo unspecified)?
gsp antagonist: 15%; gsp ag: inconclusive; D2 agonist: -1.6; Menin MLL FP FL: -0.8; Sfp inh: 15%; PINK1 modulator: -1.3%

2 compounds picked at random from those above:
How did O=C(NC1CCCCC1)C(c1ccco1)N(C(=O)c1csnn1)C1CCCC1 (stereo unspecified) do in these assays?
ClpP mod: -7.1%; gsp antagonist: -1%; gsp ag: -19%; D2 agonist: -2.5; Menin MLL FP FL: 2.6; Sfp inh: -8%; PINK1 modulator: 0.9%

How did C=CCn1c(SCC(=O)N(CC)C2CCS(=O)(=O)C2)nc2cc(C(=O)O)ccc2c1=O (stereo unspecified) do in these assays?
ClpP mod: inconclusive; gsp antagonist: 3%; gsp ag: -8%; D2 agonist: -1.8; PINK1 modulator: 1.8%

More structures:
How did O=C(NC1CC2CCC(C1)N2C(=O)NCc1ccccc1)NC12CC3CC(CC(C3)C1)C2 (stereo unspecified) do in these assays?
ClpP mod: -1.7%; gsp antagonist: 3%; gsp ag: 6%[15.4 µM]; D2 agonist: -2.3; Menin MLL FP FL: 0.1; Sfp inh: 16%; PINK1 modulator: -0.8%

Results for Cc1c(O)c(C)c2c(c1O)C(=O)C[C@@H](c1ccccc1)O2 ?
ClpP mod: 0.2%; gsp antagonist: -17%; D2 agonist: 2.5; PINK1 modulator: 0.0%

How did S=c1nc2ccccc2c2nc(-c3ccccc3Cl)[nH]n12 do in these assays?
ClpP mod: 0.5%; gsp antagonist: -6%; gsp ag: -37%[inhibitor]; D2 agonist: 4.2; Menin MLL FP FL: -16; Sfp inh: -24%; PINK1 modulator: 1.6%

What do the screens show for `COc1cccc(COc2ccccc2C2Nc3ccc(Br)cc3C(=O)N2NC(=O)c2ccncc2)c1` (stereo unspecified)?
ClpP mod: -12%; gsp antagonist: -6%; gsp ag: -18%; D2 agonist: -2.8; Menin MLL FP FL: 3.6; Sfp inh: 14%; PINK1 modulator: 2.0%

Results for CCCOC(=O)C(C)n1cnc2sc(C)c(C)c2c1=O (stereo unspecified) ?
ClpP mod: 0.8%; gsp antagonist: 2%; gsp ag: 1%; D2 agonist: -0.1; Menin MLL FP FL: 2.3; Sfp inh: -1%; PINK1 modulator: 0.7%

Results for COc1cccc(CN(C(=O)c2ccccc2Cl)C2CCS(=O)(=O)C2)c1 (stereo unspecified) ?
ClpP mod: -0.5%; gsp antagonist: 5%; gsp ag: -11%; D2 agonist: -3.8; Menin MLL FP FL: 4.9; Sfp inh: 16%; PINK1 modulator: 0.5%

What do the screens show for `O=C(Nc1cccc(OC(F)(F)F)c1)C1Cc2c(-c3ccco3)ccnc2O1` (stereo unspecified)?
ClpP mod: -12%; D2 agonist: 0.7; PINK1 modulator: 2.1%

Results for C=CC1=C(C)/C(=C/c2[nH]c(Cc3[nH]c(/C=C4\NC(=O)C(C)=C4C=C)c(C)c3CCC(=O)O)c(CCC(=O)O)c2C)NC1=O ?
Menin MLL FP FL: inconclusive; Sfp inh: 40µM*; PINK1 modulator: 0.1%

Results for c1ccc2c(c1)CCCN2c1nc2ccccc2n2cnnc12 ?
ClpP mod: -6.6%; gsp antagonist: -25%; gsp ag: -77%[inhibitor]; D2 agonist: -0.7; Menin MLL FP FL: 13; Sfp inh: -6%; PINK1 modulator: 1.0%

Results for CC(=O)NC1=NN(C(C)=O)C(c2ccc(F)cc2)S1 (stereo unspecified) ?
gsp antagonist: 0%; gsp ag: -11%; D2 agonist: 2.3; Menin MLL FP FL: -3.7; Sfp inh: 4%; PINK1 modulator: -0.9%

What do the screens show for `COc1ccc(N2CCN(C(=O)CN(Cc3ccccc3)S(C)(=O)=O)CC2)cc1`?
ClpP mod: -1.9%; gsp antagonist: -17%; gsp ag: -41%[inhibitor]; D2 agonist: -0.6; Menin MLL FP FL: 3.3; Sfp inh: -2%; PINK1 modulator: -3.2%[38.3 µM]

How did O=C(CN1CCOCC1)NCCC12CC3CC(CC(C3)C1)C2 do in these assays?
ClpP mod: -1.2%; gsp antagonist: 9%; gsp ag: -5%; D2 agonist: -4.7; Menin MLL FP FL: 1.0; Sfp inh: 2%; PINK1 modulator: 0.7%

Results for Cc1ccc(S(=O)(=O)NC(C)C(=O)NCc2ccc(Cl)cc2)cc1 (stereo unspecified) ?
ClpP mod: 1.0%; gsp antagonist: 2%; gsp ag: -49%[inhibitor]; D2 agonist: -1.7; PINK1 modulator: 0.4%

What do the screens show for `CCC1=C(OC(=O)N(CC)CC)N2C(=O)OC(=NCC(=O)OC)[C@]2(C)[C@H]2C1=CC[C@H]1C(=O)NC(=O)[C@H]12`?
ClpP mod: 0.4%; gsp antagonist: 4%; gsp ag: 4%; D2 agonist: -3.8; Menin MLL FP FL: 0.0&-1.0; Sfp inh: 13%&3%; PINK1 modulator: 1.0%

Results for Cc1cc(NC(=O)CCC(=O)N(c2ccccc2)C(C(=O)NC2CCCC2)c2ccccc2)no1 (stereo unspecified) ?
ClpP mod: 0.1%; gsp antagonist: 0%; gsp ag: -2%; D2 agonist: -3.1; Menin MLL FP FL: 1.0; Sfp inh: 29%; PINK1 modulator: 1.3%

Results for COc1cccc(NC(=O)CCCn2c(=S)[nH]c3ccccc3c2=O)c1 ?
ClpP mod: 1.7%; gsp antagonist: 0%; gsp ag: 23%; D2 agonist: -2.3; Menin MLL FP FL: -1.5; Sfp inh: -3%

How did Cc1ccc(Oc2ncccc2NC(=O)CCCC(=O)O)c2c1CCC2 do in these assays?
gsp antagonist: -8%; gsp ag: -9%[15.4 µM]; D2 agonist: -2.4; Menin MLL FP FL: -0.7; Sfp inh: 20%; PINK1 modulator: 0.4%
